PINK1 expr mod: A Quantitative High throughput Screen to Identify Chemical Modulators of PINK1 Expression; 0.2% of 410,000 active; PINK1 immunofluorescence, high-content cytometry, 24 h; Potency, µM (doses to about 76.6 µM), for inactives: top-dose activation (PINK1 increase), hits mostly activators; AID 624263, 2012; active = well fitted activation curve with a large enough effect; inconclusive = small, poorly fitted or top-dose-only effect; inactive = flat fitted curve, though single readings scatter; cell line not stated here;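 further: potency means the concentration at half of the fitted maximal effect; % of control where 0% means no effect; nearly all actives have a fitted effect of over 65% in size; a mitochondrial uncoupler was the plate control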
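Fluorescence from anti-PINK1 antibody, together with nuclear and cell stains, was scanned on a laser-scanning cytometer. Before staining, stable-line cells were incubated 24 hours with compounds at 5 concentrations; primary antibody 12 h at 10 degrees C.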
D2 ag: Beta-Arrestin HTS for Positive Allosteric Modulators of the Human D2 Dopamine Receptor: Agonists; D(2) dopamine receptor (Homo sapiens), P14416; DiscoveRx PathHunter D2 beta-arrestin, luminescence, 90 min; 100% = 57 uM dopamine signal; activation, % (test concentration not listed); 0.084% of 360,000 active; in the data active = activation above about 40%; inconclusive = about 15% to 40%; inactive = below about 15%; further: compound concentration not given in the record; the text of the record calls up to 30% inactive
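Agonist mode: compounds alone added to overnight-plated D2 PathHunter cells for 90 min at 37 C, with 57 uM final dopamine (EC100) defining full response. Beta-arrestin recruitment detected by chemiluminescent reagent, read after 1 h at ambient temperature.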
TRPML1 agonist: qHTS for Agonists of the Human Mucolipin Transient Receptor Potential 1 (TRPML1); activation, % (no concentration beside the values); Mucolipin-1 (Homo sapiens), Q9GZU1; AID 624414, 2012; 0.12% of 410,000 active; TRPML1-expressing cells, Ca2+ dye fluorescence, FDSS; host cell line not named in the record; reference of the full effect not given here; in the data active = activation above about 50%; inconclusive = about 30% to 50%; inactive = below about 30%; further: 0% is about no effect; the text of the record puts the active cut at 80%
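Agonist activity was taken from a 110 s kinetic Ca2+ dye read on the FDSS after pinning compounds onto TRPML1-DL cells. The cells were seeded at 1,500/well with Tet inducer, incubated about 16 h, then dye-loaded at room temperature.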
D2 potentiator: Beta-Arrestin HTS for Positive Allosteric Modulators of the Human D2 Dopamine Receptor: Potentiators; 0.23% of 360,000 active; D(2) dopamine receptor (Homo sapiens), P14416; AID 624464, 2012; potentiation, % (concentration not given with the values); DiscoveRx D2 beta-arrestin cells, luminescence, 90 min; 100% = 57 uM dopamine signal; active = potentiation of 50% or more; inconclusive = 30% to 50%; inactive = 30% or less;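 further: compound concentration not given in the record; tested on top of an EC20 dose of dopamine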
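D2 cells co-treated with compound plus 50 nM dopamine (EC20) for 90 min at 37 deg C to detect potentiation. Beta-arrestin recruitment was read as enzyme-fragment luminescence after 1 h at ambient temperature. Full response was set by 57 uM dopamine.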
Six1-Eya2 inh: qHTS Assay for Inhibitors of the Six1/Eya2 Interaction; Homeobox protein SIX1 (Homo sapiens) + Protein phosphatase EYA2 (Homo sapiens), …; AlphaScreen GST-Six1/His-Eya2 binding, biochemical; stronger effect = lower value; control for the full effect not named in the record; activity change, % (test concentration not listed); 0.56% of 360,000 active; in the data active = activity change below about -65%; inconclusive = about -30% to -65%; inactive = above about -30%; further: on the % scale 0 is the no-effect control and ±100 the full control effect; compound concentration not given in the record
Target sequence (O00167 whole entry, looked up): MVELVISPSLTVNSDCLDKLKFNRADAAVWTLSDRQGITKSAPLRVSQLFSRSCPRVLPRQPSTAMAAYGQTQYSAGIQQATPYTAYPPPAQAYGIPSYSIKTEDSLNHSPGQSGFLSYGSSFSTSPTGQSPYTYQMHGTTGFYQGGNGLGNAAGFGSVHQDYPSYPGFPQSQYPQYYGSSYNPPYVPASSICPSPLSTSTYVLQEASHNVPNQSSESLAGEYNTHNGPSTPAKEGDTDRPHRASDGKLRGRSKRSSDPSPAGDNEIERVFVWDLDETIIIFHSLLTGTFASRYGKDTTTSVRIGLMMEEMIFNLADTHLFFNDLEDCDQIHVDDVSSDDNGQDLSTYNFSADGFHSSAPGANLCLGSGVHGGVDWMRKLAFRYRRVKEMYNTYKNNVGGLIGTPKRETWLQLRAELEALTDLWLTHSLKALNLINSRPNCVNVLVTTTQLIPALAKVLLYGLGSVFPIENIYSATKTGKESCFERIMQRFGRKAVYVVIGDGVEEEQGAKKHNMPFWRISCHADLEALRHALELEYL
Target sequence (Q15475 whole entry, looked up): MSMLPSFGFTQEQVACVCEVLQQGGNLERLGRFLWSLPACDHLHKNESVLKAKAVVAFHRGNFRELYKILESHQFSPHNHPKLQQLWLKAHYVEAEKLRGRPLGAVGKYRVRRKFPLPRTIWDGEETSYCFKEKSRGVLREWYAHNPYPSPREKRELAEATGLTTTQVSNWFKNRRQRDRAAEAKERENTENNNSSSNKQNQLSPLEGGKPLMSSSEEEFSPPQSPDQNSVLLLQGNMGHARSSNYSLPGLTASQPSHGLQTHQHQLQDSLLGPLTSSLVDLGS
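GST-Six1 + His-Eya2 (5X stock: 250/500 nM); Tris pH 8.0, 300 mM NaCl, 0.05% BSA, 0.02% Tween 20; GSH donor/Ni acceptor beads; 1 h 37 °C dark; AlphaScreen readout.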
TRPML1 blocker: qHTS for Inhibitors of the Human Mucolipin Transient Receptor Potential 1 (TRPML1); Mucolipin-1 (Homo sapiens), Q9GZU1; TRPML1-inducible cells, Ca2+ dye fluorescence, FDSS; stronger effect = lower value; inhibition of EC80 agonist-evoked calcium signal; activity change, negative = inhibition, % (test concentration not listed); 0.02% of 390,000 active; AID 624415, 2012; in the data active means activity change below about -50%; inconclusive means about -30% to -50%; inactive means above about -30%;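 further: stimulus is agonist 54-4 at its EC80 concentration; on the % scale 0 is the no-effect control and ±100 the full control effect; compound concentration not given in the record; the text of the record puts the active cut at -80%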
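Tet-induced TRPML1-DL cells loaded with Ca8 no-wash calcium dye were read kinetically on FDSS. Compound addition was followed by EC80 agonist 54-4 (4 uM final); inhibition was read over 110 s.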
An asterisk follows results filed as active; ? = inconclusive; nt = not tested or not shown; & = joins results of further samples; [ ] = remark or other dose.

Assay codes – A = PINK1 expr mod; B = D2 ag; C = TRPML1 agonist; D = D2 potentiator; E = Six1-Eya2 inh; F = TRPML1 blocker
1) O=C(c1cc2ccccc2oc1=O)N(Cc1ccc2c(c1)OCO2)Cc1ccco1
  A = 0.2%; B = -2.8; C = 0.0; D = -12; E = -11; F = -9

2) CCCCC(=O)Nc1cc(C)c(NC(=O)c2cccs2)cn1
  A = 2.1%; B = -1.0; C = -0.1; D = 6; E = 7; F = -10

3) Cc1ccc(C(C)C)c(OCC(=O)NNC2=CC(=O)CC(C)(C)C2)c1
  A = 8.5%; B = -6.0; C = 0.6; D = -33; E = -6; F = 20

4) CC(C)OCCCNC(=O)C(=O)N/N=C/c1ccc(OCc2ccccc2)cc1
  A = 0.0%; B = -6.6; C = 0.1; D = -5; E = 9; F = -5

5) Cc1c(NC(=O)COc2cccc(Br)c2)c(=O)n(-c2ccccc2)n1C
  A = -3.6%; B = 0.2; C = 0.1; D = -4; E = -8; F = 1

6) CC12CC3CC(C)(C1)CC(Nc1nc(N4CCOCC4)nc4ccccc14)(C3)C2
  A = ?; B = -0.5; C = 0.5; D = 4; E = -8; F = 43

7) CC(=O)c1ccc(NC(=O)C2CC(=O)N(Cc3ccccc3)C2)cc1 (configuration not stated)
  A = 1.6%[38.3 µM]; B = -2.8; C = 0.8; D = -7; E = -6; F = -6

8) CC(NC(=O)c1ccco1)C(=O)N(C)Cc1ccc(C(F)(F)F)cc1 (configuration not stated)
  A = -1.5%; B = -4.2; C = -0.9; D = -7; E = -6; F = 4

9) Cc1ccc(-c2cccc(C(=O)NCCc3ccccc3)n2)c2ccccc12
  A = 5.2%; B = -4.6; C = 2.5; D = -8; E = 2; F = 29

10) COc1ccc(NS(=O)(=O)c2ccc(Cl)c(N)c2)cc1Br
  A = 5.8%; B = 2.9; C = 2.0; D = -6; E = -5; F = 14

11) CCOc1ccc2[nH]c(=O)c(CN(CCc3ccccc3)C(=O)N3CCCC3)cc2c1
  A = 2.4%[38.3 µM]; B = -1.7; C = -0.1; D = 9; E = -1; F = -27

12) CCc1ccc(CNC(=O)C2CCN(S(=O)(=O)N3CCC(C)CC3)CC2)cc1
  A = 5.1%; B = 4.2; C = -0.8; D = -4; E = -1; F = -17

13) COc1nnc(-c2ccc(C)c(S(=O)(=O)NCC3CCCO3)c2)c2ccccc12 (configuration not stated)
  A = -2.3%; B = -3.0; C = 1.3; D = -4; E = ?; F = -5

14) COc1cccc(CNC(=O)CN(C)S(=O)(=O)c2ccc(Br)s2)c1
  A = -1.8%; B = 6.4; C = -0.3; D = -3; E = -3; F = -2

15) O=C(Nc1nonc1-c1ccc(Cl)cc1)c1ccccc1F
  A = 7.0%; B = nt; C = 2.2; D = nt; E = nt; F = 4

16) COc1ccc(Cl)cc1C(=O)Nc1ccc2nc3n(c(=O)c2c1)CCCC3
  A = -1.6%; B = -0.8; C = -0.9; D = -2; E = -14; F = 6

17) COc1cccc(N2CCN(C(=O)C3CCN(S(=O)(=O)c4c(C)noc4C)CC3)CC2)c1
  A = 1.6%; B = nt; C = -1.2; D = nt; E = nt; F = -18

18) CCCc1cc(C(=O)N2CCN(S(=O)(=O)c3ccc(OC)c(OC)c3)CC2)cs1
  A = 2.1%[38.3 µM]; B = -1.2; C = 0.3; D = -12; E = -3; F = 26

19) O=C(CCc1nnc(CCCCc2ccccc2)o1)N1CCN(CCO)CC1
  A = 4.2%; B = 3.6; C = 0.8; D = 1; E = 1; F = 7

20) CN1CCC(=O)N([C@H](CSc2ccc(Br)cc2)Cc2ccccc2)CC1
  A = 0.4%; B = 0.2; C = 2.5; D = -14; E = -8; F = 6

21) Cc1nc(N2CCC(C)CC2)c2oc3ccccc3c2n1
  A = 7.7%; B = 1.7; C = 1.7; D = 2; E = 7; F = 37

22) COCCCn1c(=N)c(S(=O)(=O)c2ccccc2)cc2c(=O)n3cccc(C)c3nc21
  A = 5.0%; B = nt; C = 3.4; D = nt; E = nt; F = 14

23) CC(=C/c1ccccc1)/C=C1/SC(N2CCOCC2)=NC1=O
  A = 2.8%; B = -0.4; C = 1.2; D = -34; E = -1; F = -8

24) O=C(CCC(=O)Nc1ccccc1)NNC(=O)c1ccco1
  A = 8.2%[38.3 µM]; B = -2.4; C = 0.6; D = 0; E = 4; F = -7

25) CC(C)Oc1ccc(S(=O)(=O)N2CCCCC2)cc1NC(=O)C1=NN(c2ccccc2)C(=O)CC1
  A = 0.4%; B = -4.2; C = -0.6; D = -5; E = -7; F = 3

26) Cc1cc(C)cc(Oc2nc3ccccn3c(=O)c2/C=C(\C#N)c2nc3ccccc3s2)c1
  A = 9.2%; B = nt; C = -0.3; D = nt; E = nt; F = 27

27) COc1cc2c(cc1CN1CCN(C(=O)c3cc(OC)c(OC)c(OC)c3)CC1)OCO2
  A = 1.0%; B = -2.9; C = 0.2; D = -9; E = 6; F = 2

28) CCOC(=O)c1c(C)[nH]c(N=Nc2ccccc2Cl)c1C
  A = 14%; B = -3.7; C = -0.3; D = -11; E = ?; F = 0

29) c1ccc(-c2cc3nc(NCc4ccc5c(c4)OCO5)ccn3n2)cc1
  A = 1.6%; B = 2.9; C = 0.2; D = 0; E = ?; F = 7

30) COc1ccc2cc(C(C)C(=O)Nc3cccc(S(=O)(=O)N(C)C)c3)ccc2c1 (configuration not stated)
  A = 1.1%; B = -11; C = 0.3; D = -7; E = -8; F = 14

An excerpt from above in order of SMILES length, low to high.
Assay codes – A = PINK1 expr mod; B = D2 ag; C = TRPML1 agonist; D = D2 potentiator; E = Six1-Eya2 inh; F = TRPML1 blocker
24) O=C(CCC(=O)Nc1ccccc1)NNC(=O)c1ccco1
  A = 8.2%[38.3 µM]; B = -2.4; C = 0.6; D = 0; E = 4; F = -7

17) COc1cccc(N2CCN(C(=O)C3CCN(S(=O)(=O)c4c(C)noc4C)CC3)CC2)c1
  A = 1.6%; B = nt; C = -1.2; D = nt; E = nt; F = -18

25) CC(C)Oc1ccc(S(=O)(=O)N2CCCCC2)cc1NC(=O)C1=NN(c2ccccc2)C(=O)CC1
  A = 0.4%; B = -4.2; C = -0.6; D = -5; E = -7; F = 3

Following part.
Assay codes – A = PINK1 expr mod; B = D2 ag; C = TRPML1 agonist; D = D2 potentiator; E = Six1-Eya2 inh; F = TRPML1 blocker
31) CC(C)[C@@H](C(=O)N1CCNCC1)n1cc(CCO)nn1
  A = -1.6%; B = -2.1; C = 0.3; D = -8; E = 5; F = -2

32) O=C(CCNC(=O)C1CCN(S(=O)(=O)c2ccccc2)CC1)NCc1ccc(Cl)cc1
  A = -0.2%; B = 0.4; C = 0.5; D = -10; E = 2; F = 4

33) CCOC(=O)C1CCN(C(=O)Cn2ncc3c([nH]c4ccccc43)c2=O)CC1
  A = 6.3%&0.7%; B = -2.3; C = -0.5&1.7; D = -11; E = 3; F = -9&-17

34) O=c1c2c(nc3nc[nH]n13)CCC2
  A = 0.4%; B = -8.6; C = -0.8; D = -9; E = 1; F = -13

35) CCOC(=O)C1CCCN(CC(=O)N2CCCc3c2c(=O)oc2ccc(OCc4ccccc4)cc32)C1 (configuration not stated)
  A = 1.8%; B = nt; C = -0.5; D = nt; E = nt; F = 9

36) CCOc1ccc(S(=O)(=O)N(C)CC(=O)NCCN2CCOCC2)cc1
  A = 0.8%; B = -1.5; C = -0.1; D = 1; E = 1; F = 14

37) COC(=O)c1cn(NC(=O)C2CCC(C(C)(C)C)CC2)c(=O)c2ccccc12 (configuration not stated)
  A = 11%; B = -1.9; C = 2.0; D = 0; E = -1; F = -20

38) C/C(CC(=O)Nc1cccnc1)=N\NC(=O)c1ccc([N+](=O)[O-])c(Cl)c1
  A = -2.9%; B = 2.4; C = -0.2; D = 7; E = 1; F = -16

39) CC(C)C(=O)Nc1nnc(CCN2CCOCC2)s1
  A = 9.3%[38.3 µM]; B = -0.5; C = 0.1; D = -7; E = 8; F = 1

40) Cc1cccc(-c2noc(CNC(=O)c3ccccc3Br)n2)c1
  A = -0.1%; B = nt; C = -0.4; D = nt; E = nt; F = -2

41) CCCC[C@@H]1C=C(C(=O)O)[C@H](c2ccc(CC)cc2)N1S(=O)(=O)c1ccc(C)cc1
  A = -1.5%; B = 1.4; C = 0.0; D = -7; E = 0; F = 12

42) Cc1ccc(Cl)cc1NC(=O)C1CCCN(S(=O)(=O)c2cccc3cccnc23)C1 (configuration not stated)
  A = -1.3%; B = nt; C = 2.4; D = nt; E = nt; F = 2

43) O=C1CS(=O)(=O)C2(C(=O)N(Cc3ccc(F)cc3)c3ccccc32)N1c1cccc(C(F)(F)F)c1 (configuration not stated)
  A = -0.6%; B = nt; C = 0.6; D = nt; E = nt; F = -15

44) O=S(=O)(Nc1cccc(Cl)c1)c1ccc2oc(=S)[nH]c2c1
  A = 0.5%; B = 1.1; C = 0.4; D = -4; E = 1; F = -4

45) O=S(=O)(Nc1ccc2c(c1)nc1n2CCOC1)c1ccc(Cl)cc1
  A = -2.6%; B = 1.1; C = 2.4; D = 4; E = 4; F = 7

46) COc1c(OC)c(O)c2c(=O)cc(-c3c(O)cccc3O)oc2c1OC
  A = 5.1%; B = 4.1; C = -0.3; D = 10; E = -3; F = -1

47) COC(=O)c1sc2cccc(F)c2c1S(=O)(=O)NCc1ccccc1Cl
  A = 2.3%; B = nt; C = 2.6; D = nt; E = nt; F = -6

48) COc1ccc(CN(Cc2ccco2)c2cnc(S(C)(=O)=O)nc2C(=O)Nc2ccc(C)c(Cl)c2)cc1
  A = -1.2%; B = nt; C = 1.3; D = nt; E = nt; F = -12

49) CC(C)NC(=O)C(Sc1ccccc1)c1ccccc1 (configuration not stated)
  A = -2.5%; B = 1.0; C = 3.0; D = -22; E = 6; F = -14

50) COc1ccc(-c2csc3ncnc(N4CCN(S(=O)(=O)c5ccc(C)c(C)c5)CC4)c23)cc1
  A = 4.5%; B = -3.5; C = 1.9; D = -2; E = 3; F = 10

51) COc1ccc(CSc2nc(C)[nH]c2[N+](=O)[O-])cc1[N+](=O)[O-]
  A = 0.7%; B = -1.0; C = 0.9; D = -3; E = -15; F = 21

52) C=CCn1c(C)cc(C(=O)Cn2ncc(Cl)c(Cl)c2=O)c1C
  A = -2.0%; B = -9.1; C = -1.3; D = -10; E = -19; F = -15

As entered above:
In Six1-Eya2 inh, compound 52 shows -19
In TRPML1 blocker, compound 48 shows -12
In Six1-Eya2 inh, compound 50 shows 3

Screens from PubChem.
